High-throughput results from PubChem BioAssay.
STAT1 blocker: STAT1 signaling inhibitors, primary screen, cell-based, HTS, luciferase reporter; NIH 3T3 STAT1-luciferase reporter, IFN-gamma, luminescence; inhibition, % at 5.5 µM; 200,000 tested, 0.35% active; AID 920, 2007;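 active means inhibition above a set limit, the mean inhibition across all tested compounds plus 3 SD, cut at about 34% in these data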;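 further: 0% = IFN-gamma with DMSO and 100% = IFN-gamma with 300 µM nifuroxazide; values of inactives mirror those of a sister screen read the other way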
ROMK primary: ROMK potassium channel modulators, primary screen, cell-based, thallium flux, MLSMR library | ATP-sensitive inward rectifier potassium channel 1 (Homo sapiens), P48048 | Tet-inducible ROMK, thallium flux fluorescence; actives lie on both sides | B-score at 10 µM | 130,000 tested, 2% active | AID 1918, 2009;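 active means signal ratio slope over the read window, or its plate-corrected B-score, at least 3 SD from the plate mean, either direction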;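 further: B-score of the F/F0 ratio slope over 7 to 12 s after thallium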
Target sequence (P48048 whole entry, looked up): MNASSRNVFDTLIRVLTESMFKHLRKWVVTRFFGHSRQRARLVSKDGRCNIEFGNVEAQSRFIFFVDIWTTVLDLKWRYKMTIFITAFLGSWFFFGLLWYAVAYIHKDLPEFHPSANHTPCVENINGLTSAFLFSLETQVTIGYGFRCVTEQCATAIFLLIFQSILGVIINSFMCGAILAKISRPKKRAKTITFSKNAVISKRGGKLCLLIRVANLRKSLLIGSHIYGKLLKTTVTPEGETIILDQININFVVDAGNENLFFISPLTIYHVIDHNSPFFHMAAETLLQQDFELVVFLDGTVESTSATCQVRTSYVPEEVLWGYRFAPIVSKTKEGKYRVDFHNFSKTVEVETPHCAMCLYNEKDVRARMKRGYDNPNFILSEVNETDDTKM
STAT3 activator: IL-6 driven STAT3 reporter potentiators, primary screen, U3A cells, luciferase, luminescence, MLSCN library; 190,000 tested, 0.91% active; AID 871, 2007; IL-6 STAT3-luciferase reporter; 100% = signal with IL-6 EC80 alone; activation (% of control), % at 5.6 µM;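 active means activation above the screen-wide mean of compound activation plus 3 SD, cut at about 130% in these data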;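 further: 0% = background luminescence of wells with medium and substrate only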
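Test system: STAT3-luciferase reporter U3A cells; Detection: reporter luminescence signal; Times: 1 h compound pre-exposure, 6 h IL-6 stimulation, 37 °C; Benchmarks: IL-6-only high control; Also added: IL-6 stimulus at 33 ng/mL final.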
The depositor's hits bear a star; . = not tested or not shown. The list is partial; count on the stated rates, not on these rows.

CCOC(=O)C1=C(C)NC(C)=C(C(=O)OC)C1c1cccc(Cl)c1Cl (configuration not stated)
  STAT1 blocker: 4 | ROMK primary: . | STAT3 activator: 96
Cc1ccc(-c2cn3cc([N+](=O)[O-])ccc3n2)cc1
  STAT1 blocker: -37 | ROMK primary: . | STAT3 activator: 28
O=S(=O)(c1ccc2nc(SCc3cccc(Cl)c3)[nH]c2c1)N1CCOCC1
  STAT1 blocker: 7 | ROMK primary: -1 | STAT3 activator: 100
COCCc1ccc(OCC(O)CNC(C)C)cc1 (configuration not stated)
  STAT1 blocker: 1 | ROMK primary: . | STAT3 activator: 100
Cc1nnc(SCC2=C(C(=O)O)N3C(=O)[C@@H](NC(=O)Cn4cnnn4)[C@H]3SC2)s1
  STAT1 blocker: -2 | ROMK primary: . | STAT3 activator: 89
NC(CO)C(=O)NNCc1ccc(O)c(O)c1O (configuration not stated)
  STAT1 blocker: -2 | ROMK primary: . | STAT3 activator: 87
CCCC1O[C@@H]2C[C@H]3[C@@H]4CCC5=CC(=O)C=C[C@]5(C)[C@H]4[C@@H](O)C[C@]3(C)[C@]2(C(=O)CO)O1 (some centres not stated)
  STAT1 blocker: -61 | ROMK primary: . | STAT3 activator: 106
CCCCc1oc2ccccc2c1C(=O)c1cc(I)c(OCCN(CC)CC)c(I)c1
  STAT1 blocker: 7 | ROMK primary: . | STAT3 activator: 105

Quoted from the listing:
CCCC1O[C@@H]2C[C@H]3[C@@H]4CCC5=CC(=O)C=C[C@]5(C)[C@H]4[C@@H](O)C[C@]3(C)[C@]2(C(=O)CO)O1 (some centres not stated) | STAT1 blocker: -61
COCCc1ccc(OCC(O)CNC(C)C)cc1 (configuration not stated) | STAT3 activator: 100
NC(CO)C(=O)NNCc1ccc(O)c(O)c1O (configuration not stated) | STAT1 blocker: -2
O=S(=O)(c1ccc2nc(SCc3cccc(Cl)c3)[nH]c2c1)N1CCOCC1 | STAT1 blocker: 7

Compound profiles, from the list above:
O=S(=O)(c1ccc2nc(SCc3cccc(Cl)c3)[nH]c2c1)N1CCOCC1 reads STAT1 blocker: 7; ROMK primary: -1; STAT3 activator: 100
CCOC(=O)C1=C(C)NC(C)=C(C(=O)OC)C1c1cccc(Cl)c1Cl (configuration not stated) reads STAT1 blocker: 4; ROMK primary: .; STAT3 activator: 96
